# Source: PubChem BioAssay (several laboratories)
# LANA-H2A inh = blocks KSHV LANA binding to histone H2A/H2B. Q9QR71. cell-free LANA-H2A/H2B peptide, fluorescence polarization. inhibition, % (concentration not given with the values). 320,000 compounds, 0.6% hits; in the data active means inhibition mostly above about 10%, no sharp cut-off; inactive means mostly below about 6.7%;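 further: stock transfer was 7.5 nL into about 10 µL; 0% = median of vehicle wells and 100% = median of positive control wells; one replicate is shown; the record names a cut of 25% in any replicate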
# Target sequence (Q9QR71 whole entry, looked up): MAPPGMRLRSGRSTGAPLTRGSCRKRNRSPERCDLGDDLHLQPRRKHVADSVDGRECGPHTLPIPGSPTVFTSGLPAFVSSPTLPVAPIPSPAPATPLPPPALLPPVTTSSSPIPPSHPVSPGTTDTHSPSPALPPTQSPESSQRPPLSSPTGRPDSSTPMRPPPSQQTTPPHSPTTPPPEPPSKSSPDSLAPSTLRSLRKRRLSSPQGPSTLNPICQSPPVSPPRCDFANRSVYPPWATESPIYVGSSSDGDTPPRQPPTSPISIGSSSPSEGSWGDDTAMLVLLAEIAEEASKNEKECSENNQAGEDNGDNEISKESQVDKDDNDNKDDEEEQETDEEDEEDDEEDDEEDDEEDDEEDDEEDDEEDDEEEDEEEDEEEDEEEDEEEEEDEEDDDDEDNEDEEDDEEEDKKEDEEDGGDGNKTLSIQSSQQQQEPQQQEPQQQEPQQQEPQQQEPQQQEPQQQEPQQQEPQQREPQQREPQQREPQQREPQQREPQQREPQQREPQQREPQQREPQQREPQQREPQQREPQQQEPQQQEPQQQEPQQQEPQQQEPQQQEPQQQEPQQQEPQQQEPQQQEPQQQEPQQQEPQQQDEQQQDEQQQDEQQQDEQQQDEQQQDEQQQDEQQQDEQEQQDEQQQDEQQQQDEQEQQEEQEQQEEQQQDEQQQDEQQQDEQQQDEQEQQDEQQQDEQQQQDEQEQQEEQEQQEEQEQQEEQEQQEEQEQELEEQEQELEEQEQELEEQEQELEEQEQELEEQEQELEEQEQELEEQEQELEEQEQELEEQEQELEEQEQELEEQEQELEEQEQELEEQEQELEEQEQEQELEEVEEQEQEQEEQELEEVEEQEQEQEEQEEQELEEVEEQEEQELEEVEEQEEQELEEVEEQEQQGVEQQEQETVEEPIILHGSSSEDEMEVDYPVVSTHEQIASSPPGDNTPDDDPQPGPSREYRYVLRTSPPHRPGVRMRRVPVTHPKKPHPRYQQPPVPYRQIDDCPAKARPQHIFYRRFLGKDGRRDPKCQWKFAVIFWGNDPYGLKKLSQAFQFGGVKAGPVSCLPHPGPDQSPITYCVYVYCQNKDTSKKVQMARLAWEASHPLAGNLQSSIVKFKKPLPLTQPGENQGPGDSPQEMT
# Calb FLC = affects C. albicans growth with fluconazole | C. albicans CaCi-2 (fluconazole-resistant clinical isolate) + fluconazole, Alamar Blue growth, 48 h | growth inhibition, % (no concentration beside the values) | 300,000 compounds, 0.57% hits | AID 1979;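 active means most replicates above 75%; inconclusive means exactly half above 75%; inactive means most below 75%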;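 further: all wells also contain fluconazole at 8 µg/ml as a sub-toxic cotreatment; 0% = median of DMSO wells and 100% = median of geldanamycin control wells; wells of about 8 µL received 7.5 nL stock; the first replicate is given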
# ALR inh = blocks human ALR sulfhydryl oxidase activity | P55789 | purified ALR, DTT oxidation, H2O2 HRP-luminol luminescence | inhibition, % (test concentration not listed) | 290,000 compounds, 3.8% hits;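 active means mean and each replicate at 75% or more; inconclusive means only one of the two met; inactive means neither met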;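 further: stock transfer was 7.5 nL into about 7.5 µL; 0% = neutral wells and 100% = wells with inactivated enzyme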
# B2AR ag = human beta-2 adrenergic receptor agonism by FAP; P07550; Am2.2-beta2AR cells, FAP receptor internalization, flow cytometry; reference of the scale not given here; response, % (concentration not given with the values); 340,000 compounds, 0.43% hits; AID 504454;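 active means response above a set limit, near 3 SD of response in nonfluorescent compounds, cut at about 42% in these data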;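 further: stock transfer was 100 nL into about 11 µL; a reference agonist was the positive control; negative values mostly stem from fluorescent compounds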
# Ecoli rRNA inh = inhibits bacterial ribosomal RNA function over humanized ribosomes. AID 720706. GFP signal change (wild-type ribosome), % (no concentration beside the values). E. coli WT GFP vs humanized-ribosome RFP mutants, fluorescence, 24 h; stronger effect = lower value; DMSO median 0, no signal -100. 350,000 compounds, 1.6% hits;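 active means significant combined selectivity score with lowered wild-type GFP, culture density cut under 30%, mutant RFP and density less affected; inactive means any of these conditions unmet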; further: one replicate is shown; some compounds called inactive have numbers as strong as hits
# T cruzi inh = blocks replication of Trypanosoma cruzi. T. cruzi beta-gal in NIH3T3, luminescence, 90 h. inhibition, % (concentration not given with the values). 300,000 compounds, 1.4% hits. AID 1885;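 active means mean inhibition across valid replicates above about 55%, limit read from the data; inconclusive means mean below that limit but half or more replicates reach it; inactive means mean below it, under half of replicates reach it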;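 further: signal also drops with host cell toxicity which is not excluded here; 0% = plate median of DMSO wells and 100% = zero luminescence signal; higher percent means less beta-gal luminescence so fewer parasites; stock transfer was 50 nL into about 50 µL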
# A1 inh = inhibitors of the anti-apoptotic protein A1, read as caspase activation; MEF A1-2A-BIM cells, Caspase-Glo 3/7 luminescence, 3 h; percent of clofoctol response, vehicle zero; AID 2462; 330,000 compounds, 0.066% hits; caspase activation, % (test concentration not listed);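 active means over half of replicate activation scores above 10%, or exactly half above 10 with the replicate mean above 10; inconclusive means replicate mean below 10 yet half the replicates above 10; inactive means over half of replicates below 10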;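 further: wells of about 30 µL received 50 nL stock; many hits fall short of the cut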
# Beta cell apopt = blocks beta cell apoptosis; INS-1E cytokine-induced death, ATP luminescence, 48 h; percent of positive-control rescue, neutral wells zero; protection from apoptosis, % (concentration not given with the values); 300,000 compounds, 0.8% hits;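 active means all replicates at 75% or more, or half of them and the mean; inconclusive means half reach 75% but not the mean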;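 further: 0% = cytokine-treated negative control wells and 100% = positive control rescue; higher means more ATP so stronger rescue from cytokine killing; wells of about 40 µL received 100 nL stock; the first replicate is given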
# Ecoli rRNA inh OD600 = further read-out of Ecoli rRNA inh, marked with its call; OD600 change, %; measured here: OD600 growth;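 optical density of the mix in the first replicate; 0 = DMSO median and -100 = no signal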
# Ecoli rRNA inh RFP = also measured in Ecoli rRNA inh; calls as there; RFP signal change, %; measured here: RFP humanized mutant strains;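 first replicate; 0 = DMSO median and -100 = no signal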
# The depositor's hits bear a star; ? = inconclusive; nt = not tested or not shown. The list is partial; the hit share may differ from the screen's.
# The line under a structure holds: LANA-H2A inh	Calb FLC	ALR inh	B2AR ag	Ecoli rRNA inh	Ecoli rRNA inh OD600	Ecoli rRNA inh RFP	T cruzi inh	A1 inh	Beta cell apopt
> NC(=O)c1c(NC(=O)C(=O)N2CCOCC2)sc2c1CCCC2
    6.1	-3	-14	-8	7	10	-3.5	0	0.6	-10
> Nc1nnc(CCOc2ccccc2Cl)s1
    -0.3	-9	-12	0	nt	nt	nt	-7	-0.4	0
> Cc1cc(C(C)(C)C)ccc1OCCOCCN1CCCC1
    0.2	-22	-2	5	nt	nt	nt	55*	0.8	-3
> COc1ccc(NC(=O)/C=C/c2ccccc2[N+](=O)[O-])c(OC)c1
    -0.9	-6	61	11	-23*	-5.5*	1.4*	-4	0.3	-4
> Cc1nn(Cc2ccc(Cl)cc2Cl)c(Cl)c1/C=N/NC(=O)CNc1cccc(C(F)(F)F)c1
    -0.3	-9	-2	nt	nt	nt	nt	71*	-0.1	20
> O=C(CS(=O)(=O)c1ccccc1)Nc1nnc(C(F)(F)F)s1
    -1.3	1	-3	-2	0	4	-0.9	5	-0.8	0
> CCOC(=O)CC1C(=O)NCCN1C(=O)c1cc2c(=O)n3cccc(C)c3nc2s1 (stereo unspecified)
    -0.5	8	-14	-5	-5	-1	-1.4	-3	-0.3	-3
> COc1ccc(NC(=O)CSc2c(C)nn(-c3nnc(C)c(=O)[nH]3)c2C)cc1
    -6.5	-2	-6	0	nt	nt	nt	-2	-0.5	2
> CC(=O)NCCC(=O)Nc1ncc(S(=O)(=O)c2ccc([N+](=O)[O-])cc2)s1
    1.1	3	-9	-3	16	16	0.8	15	2.5	nt
> C=CCNC(=O)/C=C/c1ccc(C(C)C)cc1
    4.1	-4	1	7	nt	nt	nt	10	-5.2	-5
> CC1(C)CC(=O)/C(=C(\O)c2ccccc2)C(=NCCc2ccccc2)C1
    0.7	-5	-5	-3	-1	1	-2.6	14	-0.2	-4
> CC(C)=C(C#N)c1nc2ccccc2s1
    11	-16	-1	6	nt	nt	nt	-13	-0.2	-6
> Cc1nc2nc(-c3ccco3)nn2c(C)c1Cl
    -2.5	-3	-3	-8	nt	nt	nt	-16	-1.9	1
> C=CCNc1nc(NCc2ccccc2)c(C#N)c2c1CN(C)CC2
    0.3	-1	12	-22	nt	nt	nt	52	-0.1	-9
> O=C(COC(=O)C1CCC(=O)N1)Nc1ccc(Oc2ccccc2)cc1 (stereo unspecified)
    5.7	2	-5	-13	-9	-4	-3.2	-9	1.2	3
> COc1ccc(S(=O)(=O)NCCCN2CCOCC2)cc1F
    -1.9	14	-1	6	4	5	1.1	-7	-0.5	-1
> Cc1nc2nc(C)c(NS(=O)(=O)c3ccc(Cl)s3)c(=O)n2[nH]1
    4.7	-3	18	21	-1	9	-0.8	16	0.2	-3
> CC(=O)c1cccc(S(=O)(=O)NC(C)C2CC3CCC2C3)c1 (stereo unspecified)
    -2.1	-8	-9	-5	-4	-21	5.2	5	-0.6	6
> O=C(Cc1nnc(NC(=O)Nc2ccccc2)s1)Nc1ccccc1
    -1.0	-4	3	-10	8	11	3.9	4	1.0	-6
> Cc1ccccc1CN1C2=NCCCN2c2ccccc21
    2.0	-12	-9	6	nt	nt	nt	-3	-0.5	7
> COc1ccc2c(c1)c(C(=O)N/N=C/c1cccc(O)c1)c(C)n2C
    -0.1	-11	32	-1	5	5	5.2	-15	-0.1	0
> Nc1ccc(Oc2ccc3nc(-c4ccccc4)c(-c4ccc([N+](=O)[O-])cc4)nc3c2)cc1
    -0.8	-17	-9	13	nt	nt	nt	26	0.8	14
> COc1ccc2nc(SC)c(C#N)cc2c1
    6.6	23	-1	-3	19	19	3.5	-13	-1.8	3
> CC1Nc2ncnc(N3CCN(c4ccccc4)CC3)c2N(Cc2ccc(Br)cc2)C1=O (stereo unspecified)
    0.0	3	9	24	3	2	6.5	20	-0.6	-8
> CN(C)S(=O)(=O)c1ccc(S(=O)(=O)NC2CCOC(C)(C)C2)cc1 (stereo unspecified)
    -2.8	-11	-4	-5	nt	nt	nt	-12	-0.5	nt
> CCN1C(=O)[C@H]2[C@@H](c3ccc(-c4ccc(Cl)c(Cl)c4)c(OC)c3)N[C@@](Cc3ccccc3)(C(=O)OC)[C@H]2C1=O
    3.5	7	-1	-2	7	7	0.7	-2	0.5	1
> COC(=O)C(CC(C)C)NC(=O)CNC(=O)c1ccccc1C (stereo unspecified)
    2.0	-24	-5	5	nt	nt	nt	-10	0.1	3
> O=C(NCC1CCN(Cc2ccccc2Cl)CC1)Nc1ccccc1F
    0.6	9	-4	-1	11	10	2.5	12	0.3	-1
> CCc1ccccc1NC(=O)CN(C)C(=O)CSc1nc2cc(Cl)ccc2s1
    -9.1	11	-4	-7	nt	nt	nt	0	-0.3	-1
> O=C(NC1CCS(=O)(=O)C1)c1cccc(S(=O)(=O)N2CCOCC2)c1 (stereo unspecified)
    -1.1	6	1	10	nt	nt	nt	-32	-0.3	-2
> Nc1ccc(Br)cc1C(NCC(=O)O)c1ccccc1 (stereo unspecified)
    -2.5	9	58	-5	-4	-7	-6.1	2	-0.1	-7
> CCOc1ccc(C(=O)C(c2ccccc2)N2CCOCC2)cc1 (stereo unspecified)
    -0.7	2	0	-1	nt	nt	nt	5	-0.4	-8
> CC(C)c1ccccc1NC(=O)COC(=O)c1ccc(Cl)c(S(=O)(=O)N2CCCCCC2)c1
    -1.3	3	6	15	nt	nt	nt	9	1.1	nt
> CC(SCC(=O)Nc1ccccc1)c1nc2ccccc2c(=O)[nH]1 (stereo unspecified)
    -7.1	11	-21	1	4	2	-0.3	-8	0.1	3
> CC(C)(C)C(=O)O/N=C(\N)c1ccc(-c2csnn2)cc1
    6.2	3	1	-19	22	14	4.8	27	0.0	-5
> CC(=O)Nc1ccc(C)cc1
    -1.5	nt	9	-1	0	3	1.0	nt	0.4	-5
> COc1ccc(SC[C@H](C)CN2CC[C@H](C)CCC2=O)cc1
    -2.1	nt	-6	-2	-28	-39	-3.3	nt	-0.2	-4
> CCOCCCNC(=S)NCCc1ccccc1
    5.1	-6	-70	0	nt	nt	nt	8	-0.3	nt
> C/C=C(\C)C(=O)N1CCC(C(=O)c2ccccc2)CC1
    2.2	-6	nt	-6	2	-3	-0.3	-7	0.4	nt
> CCC1Oc2ccccc2N(CC(=O)NCCN2CCc3ccccc3C2)C1=O (stereo unspecified)
    7.3	-15	2	-7	0	0	0.0	-6	-0.7	-7
> CC(=O)c1nc(N2C(=O)CC(Cc3ccccc3)C2=O)sc1C (stereo unspecified)
    -1.7	-9	-2	1	1	-2	-7.1	-6	-0.3	-1
> Cn1nc(C(=O)N2CCC(C(N)=O)CC2)c2c1-c1ccccc1SC2
    -3.2	-6	nt	-4	-9	-9	-0.3	-16	-0.6	-3
> O=P(c1ccccc1)(c1ccccc1)N(c1ccccc1)c1ccccc1
    5.3	7	-2	-1	nt	nt	nt	4	0.1	-4
> COC(=O)c1cccnc1N1CCN(c2ccccc2F)CC1
    1.2	-7	0	-3	nt	nt	nt	-1	1.4	-1
> COc1cccc(/C=N/Nc2cc(N3CCOCC3)ncn2)c1O
    -4.0	98*	-5	2	-3	-14	4.1	-9	-1.1	88*
> CC(Nc1cccc(C(=O)NC2CC2)c1)c1nnc(-c2ccccc2)o1 (stereo unspecified)
    1.9	nt	-1	-6	4	-7	0.2	nt	0.8	3
> N#Cc1cccc(NC(=O)CCC2CCCC2)c1
    0.8	3	-1	0	nt	nt	nt	-2	0.6	-4
> COc1cc(NC(=O)N2CCOCC2)cc(OC)c1
    -6.9	-4	-5	10	nt	nt	nt	-11	-0.2	3
> CC1CCCC(=NNC(=O)C2COc3ccccc3O2)C1 (stereo unspecified)
    4.8	nt	27	-1	5	8	1.6	nt	1.1	0
> COc1ccccc1-n1nnnc1SCC(=O)NC1CCCC1
    -2.9	15	-2	2	nt	nt	nt	1	-0.1	-3
> O=[N+]([O-])c1cccc(-c2nnc(C3CC3)o2)c1
    1.2	-1	-12	-7	-2	8	-2.2	-14	0.1	-1
> CC(CCc1ccccc1)NC(=O)CSc1nc(N)cc(N)n1 (stereo unspecified)
    -2.9	-10	nt	4	nt	nt	nt	-7	-0.2	-10
> O=C(c1cccc(-c2nnc(-c3ccccc3)o2)c1)N1CCCCCC1
    17	13	-3	10	nt	nt	nt	10	-1.4	-1
> Cc1ccccc1C(=O)O/N=C(\N)Cc1cccs1
    -1.7	10	-2	-1	1	5	3.5	51	-7.8	nt
> O=C(CN1C(=O)C2C3CCC(C3)C2C1=O)NCc1ccco1 (stereo unspecified)
    -0.7	-6	-4	-4	21	20	-2.6	-11	0.1	-1
> CN1C(=O)c2ccc(NC(=O)c3cccc(N4C(=O)CCC4=O)c3)cc2C1=O
    2.8	-12	-8	-8	11	4	0.0	0	-0.4	-2
> c1ccc(-c2oc3ncnc(NCCN4CCOCC4)c3c2-c2ccccc2)cc1
    -0.4	20	-7	-4	-23	-19	15	35	-0.2	6
> COc1cc(CN2CCC(n3nccc3NC(=O)CCCc3ccccc3)CC2)ccc1O
    0.2	2	7	-6	6	-3	0.4	6	1.1	-1
> CC(C)C[C@H](NC(=O)N1CCn2c1nc1ccccc12)C(=O)N[C@H](Cc1ccccc1)C(=O)O
    -11	3	-3	-9	12	18	1.1	0	0.4	2
> Cc1cc(O)c(NC(=O)c2ccc(C)c([N+](=O)[O-])c2)cc1C
    -1.6	-13	-6	-10	14	15	-0.5	-9	0.3	2

# Further entries
# The line under a structure holds: LANA-H2A inh	Calb FLC	ALR inh	B2AR ag	Ecoli rRNA inh	Ecoli rRNA inh OD600	Ecoli rRNA inh RFP	T cruzi inh	A1 inh	Beta cell apopt
> Cc1ccc2[nH]c(C(=O)N3CCCC(Nc4ccc(F)cc4)C3)cc2c1 (stereo unspecified)
    0.4	2	-9	4	-34*	-24*	-0.7*	12	-0.5	-1
> O=C(c1cc2ccccc2o1)c1cccs1
    1.5	0	nt	0	nt	nt	nt	-1	-5.8	3
> Cc1cc(Nc2ccccc2)n(CCO)n1
    2.8	-8	99*	13	nt	nt	nt	-10	0.8	0
> CCc1c(C)nc(SCC(=O)N2CCCCC2)[nH]c1=O
    2.1	21	-12	13	4	14	1.9	-3	-0.6	-1
> COc1ccc(NC(=O)Cn2nnc(C(=O)NCc3ccc4c(c3)OCO4)c2N)c(OC)c1
    1.8	7	-10	6	2	4	-3.4	-4	0.4	nt
> COc1ccc(CC(=O)Nc2nncs2)cc1OC
    0.4	-2	-9	3	8	4	2.4	-6	-0.2	-7
> C#CCNC(=O)C1=C[C@@H](C)[C@H](CCCO)[C@@H](OCC)O1
    -1.1	2	-7	0	4	-3	-0.2	-15	-1.8	2
> Cc1cc(OC(C)C(=O)NCC2CCC(C(=O)O)CC2)c2c(C)c(Cc3ccccc3)c(=O)oc2c1 (stereo unspecified)
    -12	1	1	24	-10	2	9.1	6	-0.8	1
> CCC1CCCCN1CCCNC(=O)CC1Oc2ccccc2NC1=O (stereo unspecified)
    4.7	2	?	8	15	3	-4.9	5	0.3	nt
